High-throughput results as filed in PubChem.
gsp antagonist = qHTS for Antagonists of gsp, the Etiologic Mutation Responsible for Fibrous Dysplasia/McCune-Albright Syndrome: qHTS; Potency, µM (titrated, usually from 76.9 µM), without a hit: top-dose activity change, negative = inhibition, most hits filed as inhibitors; gsp-mutant cells, cAMP HTRF, 30 min; control for the full effect not named in the record; hit rate 0.4% among 340,000; active = falling curve of any shape with a large fitted effect; inconclusive = falling curve, mostly with a smaller effect; inactive = flat or rising curve; cell line not stated here;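 note: intracellular cAMP measured with PDE inhibitor Ro 20-1724 present during compound exposure; potency is the fitted concentration of half-maximal effect; % is set by controls: 0 for no effect and ±100 for the full control effect; nearly all actives have a fitted effect of over 65% in size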
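Measurement of cellular cAMP by homogeneous time-resolved fluorescence following a 30 min compound exposure at 37C. The PDE inhibitor […] was present throughout; the assay buffer was DPBS with 0.05% BSA and 0.005% Tween 20.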
gsp agonist = qHTS for Agonist of gsp, the Etiologic Mutation Responsible for Fibrous Dysplasia/McCune-Albright Syndrome: qHTS; gsp mutant cells, cAMP HTRF, 30 min; control for the full effect not named in the record; Potency, µM (titrated, usually from 76.9 µM), inactives show at the highest dose activation (cAMP increase), usual class: activators; hit rate 0.13% among 340,000; active = well fitted activation curve with a large enough effect; inconclusive = small, poorly fitted or top-dose-only effect, or another doubt; inactive = no such curve, though single readings can be large or run the other way; cell line not stated here;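 note: phosphodiesterase inhibitor Ro 20-1724 added with compounds to block cAMP breakdown; potency is the fitted concentration of half-maximal effect; nearly all actives have a fitted effect of over 60% in size; about a fifth of the inactives were tested at one dose only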
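Cells stably selected in G418 were plated at 2000/well, grown 16-24 hr, then given compounds in DMSO with the PDE inhibitor […] (300 uM solution added) for 30 min at 37C; cAMP was read by HTRF.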
Six1-Eya2 inh = qHTS Assay for Inhibitors of the Six1/Eya2 Interaction; Homeobox protein SIX1 (Homo sapiens) + Protein phosphatase EYA2 (Homo sapiens), …; AlphaScreen GST-Six1/His-Eya2 binding, biochemical; active compounds read low; control for the full effect not named in the record; hit rate 0.56% among 360,000; activity change, % (no concentration beside the values); AID 651725, 2012; in the data active = activity change below about -65%; inconclusive = about -30% to -65%; inactive = above about -30%; note: % is set by controls: 0 for no effect and ±100 for the full control effect
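AlphaScreen luminescence read after one hour at 37 °C in darkness. Pin-transferred compounds met GST-Six1 and His-Eya2 protein (5X stock 250 nM/500 nM) plus glutathione donor and Ni-chelate acceptor beads (5X, 50 ug/mL).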
D2 PAM = Beta-Arrestin HTS for Positive Allosteric Modulators of the Human D2 Dopamine Receptor: Potentiators. DiscoveRx D2 beta-arrestin cells, luminescence, 90 min; 100% = 57 uM dopamine signal. potentiation, % (no concentration beside the values). hit rate 0.23% among 360,000. AID 624464, 2012; active = potentiation of 50% or more; inconclusive = 30% to 50%; inactive = 30% or less;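 note: compound concentration not given in the record; tested on top of an EC20 dose of dopamine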
Target sequence (P14416 whole entry, looked up): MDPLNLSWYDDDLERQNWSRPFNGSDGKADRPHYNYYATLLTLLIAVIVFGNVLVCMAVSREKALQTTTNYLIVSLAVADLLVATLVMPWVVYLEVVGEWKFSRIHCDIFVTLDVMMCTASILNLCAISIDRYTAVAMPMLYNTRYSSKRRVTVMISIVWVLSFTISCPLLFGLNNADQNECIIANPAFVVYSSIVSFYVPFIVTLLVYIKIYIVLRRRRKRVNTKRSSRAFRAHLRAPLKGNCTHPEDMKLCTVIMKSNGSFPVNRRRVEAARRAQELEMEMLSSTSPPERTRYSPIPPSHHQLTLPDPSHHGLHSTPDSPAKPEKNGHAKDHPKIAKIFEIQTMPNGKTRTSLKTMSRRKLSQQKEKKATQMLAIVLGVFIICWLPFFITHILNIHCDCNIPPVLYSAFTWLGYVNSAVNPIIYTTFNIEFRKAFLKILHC
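PathHunter D2 cells, attached overnight at 37 deg C, received compound in DMSO plus dopamine at EC20 (50 nM final) for 90 min at 37 deg C. Beta-arrestin recruitment was read as luminescence after 1 h with detection reagent at ambient temperature.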
D2 agonist = Beta-Arrestin HTS for Positive Allosteric Modulators of the Human D2 Dopamine Receptor: Agonists; AID 624465, 2012; D(2) dopamine receptor (Homo sapiens), P14416; activation, % (concentration not given with the values); hit rate 0.084% among 360,000; DiscoveRx PathHunter D2 beta-arrestin, luminescence, 90 min; 100% = 57 uM dopamine signal; in the data active = activation above about 40%; inconclusive = about 15% to 40%; inactive = below about 15%; note: compound concentration not given in the record; the text of the record calls up to 30% inactive
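DiscoveRx PathHunter D2 beta-arrestin cells (2,100/well) attached overnight, then compound-stimulated 90 min at 37 C in HBSS/10 mM HEPES/0.1% Tween-20 buffer; beta-galactosidase complementation read by luminescence after 1 h at ambient temperature. Dopamine 57 uM final (EC100) as control.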
CtBP-E1A blk = qHTS Assay for Inhibitors of the CtBP/E1A Interaction | CtBP / adenovirus E1A interaction (AlphaScreen) | AlphaScreen GST-E1A/His-CtBP binding, 1536-well; active compounds read low; control for the full effect not named in the record | hit rate 0.49% among 340,000 | AID 651724, 2012 | activity change, % (no concentration beside the values); in the data active means activity change below about -65%; inconclusive means about -30% to -65%; inactive means above about -30%; note: % is set by controls: 0 for no effect and ±100 for the full control effect
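Homogeneous bead-based format: GST-tagged E1A captured on glutathione donor beads, His-tagged CtBP on nickel acceptor beads; compounds precede bead addition by 2 h at 37 °C.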
Starred values were filed as active, the others as inactive; ? = inconclusive; / = not tested or not shown; [ ] = dose if it differs, or a comment.

(1) CC(=O)c1ccc(OCC(O)CN2CCN(c3ccccn3)CC2)cc1 (stereo not drawn)
(2) CCOC(=O)c1c(NC(=O)CSc2nnc(-c3c[nH]c4ccccc34)n2CCOC)sc2c1CCCCC2
(3) S=c1[nH]nc(Nc2cccc(Cl)c2)s1
(4) CCN(CC)CC(=O)N1c2ccccc2CCc2ccc(NC(=O)c3cc(OC)c(OC)c(OC)c3)cc21
(5) COc1ccccc1NC(=O)Nc1nc(C(N)C2CCCCC2)cs1 (stereo not drawn)
(6) CS(=O)(=O)c1ncc(CO)n1Cc1ccccc1
(7) CCN(CC)S(=O)(=O)c1cccc(NC(=O)COc2ccc(C#N)cc2OC)c1
(8) COc1cc(C(c2sc3nc(C)nn3c2O)N2CCN(c3ccccc3)CC2)cc(OC)c1OC (stereo not drawn)
(9) O=C(NCC1CCCO1)c1ccc(S(=O)(=O)Nc2ccc(F)cc2)cc1 (stereo not drawn)
(10) CCOc1ccc(-n2cc(C(=O)Nc3cccc(C)n3)c3cc(OC)c(OC)cc3c2=O)cc1
Screen / compound no.	1	2	3	4	5	6	7	8	9	10
gsp antagonist	2%	?	-6%	10%	/	5%	-26%	9%	11%	-5%
gsp agonist	-23%	-71%[inhibitor]	1%	-6%[15.4 µM]	/	45%	3%[15.4 µM]	?	-29%	-19%
Six1-Eya2 inh	-2	-7	-3	-1	-6	4	18	-1	-1	-11
D2 PAM	94*	-7	-8	-9	-20	-1	2	-7	-23	21
D2 agonist	47*	-3.6	-0.2	-1.0	2.2	-3.3	1.8	1.9	-4.5	-4.6
CtBP-E1A blk	3	-8	/	1	2	1	1	-10	2	5

Reprinted from the part before: 4 entries; new compounds follow.
(7) CCN(CC)S(=O)(=O)c1cccc(NC(=O)COc2ccc(C#N)cc2OC)c1
(8) COc1cc(C(c2sc3nc(C)nn3c2O)N2CCN(c3ccccc3)CC2)cc(OC)c1OC (stereo not drawn)
(9) O=C(NCC1CCCO1)c1ccc(S(=O)(=O)Nc2ccc(F)cc2)cc1 (stereo not drawn)
(10) CCOc1ccc(-n2cc(C(=O)Nc3cccc(C)n3)c3cc(OC)c(OC)cc3c2=O)cc1
(11) N#C/C(=C/c1ccc(-c2ccc(S(N)(=O)=O)cc2)o1)C(=O)Nc1ccccc1
(12) COc1ccc(S(=O)(=O)N2CCN(c3cc(-c4ccccc4)nc4ncnn34)CC2)cc1
(13) CCCc1nnc(NC(=O)c2c(O)c3c([nH]c2=O)CCCC3)s1
(14) CCCNC(=O)Cc1c(C)n(C(=O)c2ccc(Cl)cc2)c2ccc(OC)cc12
(15) Cc1coc2c1c(C)cc1oc(=O)c(CC(=O)NCC(=O)NCC(=O)O)c(C)c12
(16) CC(=O)c1ccc(NC(=O)COc2ccccc2C(=O)Nc2ccccc2)cc1
(17) O=C(C1CC(c2ccccc2O)=NO1)N1CCCCC1 (stereo not drawn)
(18) O=C1CN(C(=O)c2cc3ccccc3oc2=O)C(c2ccc(F)cc2)c2cc(Br)ccc2N1 (stereo not drawn)
(19) COC(=O)Cn1cc(C#N)c2ccccc21
(20) CO/N=C/c1ccc(N2CCCC2)c([N+](=O)[O-])c1
Screen / compound no.	7	8	9	10	11	12	13	14	15	16	17	18	19	20
gsp antagonist	-26%	9%	11%	-5%	-1%	-23%	0%	-24%	5%	?	0%	-19%	3%	-9%
gsp agonist	3%[15.4 µM]	?	-29%	-19%	-1%	10%	-20%	21%	-1%	0%	-17%	-16%	-58%[inhibitor]	5%[15.4 µM]
Six1-Eya2 inh	18	-1	-1	-11	-11	-3	2	-5	-18	-12	6	-8	8	-29
D2 PAM	2	-7	-23	21	-2	6	16	-3	0	10	-8	-4	-7	-1
D2 agonist	1.8	1.9	-4.5	-4.6	8.6	0.3	1.2	1.7	0.6	5.6	-0.6	-30	0.5	-8.8
CtBP-E1A blk	1	-10	2	5	-17	9	8	0	-27	-3	9	-2	14	-22

(21) CCN1CC(c2ccccc2)C(c2ccc(Cl)cc2)=N1 (stereo not drawn)
(22) Cc1cc2c(c(=O)n1CCN(C)C)C(c1ccncc1)C(C#N)=C(N)O2 (stereo not drawn)
(23) Cn1c(=O)c2c(SCC(=O)NC3CCCC3)nc(CC(C)(C)C)nc2n(C)c1=O
(24) CC(=O)Nc1ccc(S(=O)(=O)NCc2ccc(C(=O)NCc3ccc4c(c3)OCO4)cc2)cc1
(25) O=C(Nc1nc2c(F)cc(F)cc2s1)c1ccccn1
(26) CCCNC(=O)c1ccccc1NC(=O)C1COc2ccccc2O1 (stereo not drawn)
(27) CC(NS(=O)(=O)c1cccc(Cl)c1F)[C@H](O)c1ccccc1 (stereo partly drawn)
(28) Cc1ccc(NC(=O)C2CCN(S(=O)(=O)c3ccc4c(c3)NC(=O)CO4)CC2)cc1C
(29) CCC1(c2ccc(Cl)cc2)NC(=O)N(CC(=O)NCc2ccc(F)cc2)C1=O (stereo not drawn)
(30) O=C(NCCCn1ccnc1)c1ccc(Br)o1
Screen / compound no.	21	22	23	24	25	26	27	28	29	30
gsp antagonist	-7%	13%	-12%	3%	-1%	16%	/	-22%	11%	10%
gsp agonist	-4%[15.4 µM]	10%	-7%	-7%	7%[15.4 µM]	-1%	21%	-11%	-39%[inhibitor]	7%
Six1-Eya2 inh	-14	-1	6	2	10	-21	4	0	3	-3
D2 PAM	0	-10	0	-20	-5	-15	6	-26	-5	3
D2 agonist	-5.0	-2.7	-1.2	-1.3	-1.1	-0.7	-8.5	0.9	2.0	1.5
CtBP-E1A blk	9	4	7	0	?	15	4	-2	2	-7

(31) COc1ccc(CCN(C)Cc2cccc3ccccc23)cc1OC
(32) CCOC(=O)C1C(=O)NCC1c1ccccc1 (stereo not drawn)
(33) CCc1nc2ccc(C(=O)NCc3ccc(OC)cc3)cn2c1N(CC)CCOC
(34) CCOc1ncccc1C(=O)OC(C)C(=O)NC1CCCCC1 (stereo not drawn)
(35) O=C(O)c1ccc(-c2ccc(O)c(F)c2)cc1
(36) CCCC(=O)N1CC(=O)Nc2ccc(F)cc2C1c1ccccc1 (stereo not drawn)
(37) Cc1cc(O)c(-c2ccno2)cc1Cl
(38) Cc1nnc(SCC(=O)NCc2ccccc2Cl)n(N)c1=O
(39) O=C(CSc1nnc2ccccn12)NC(=O)NC1CCCC1
(40) Cc1ccc(N(CC(O)CN2C(=O)NC(C)(C)C2=O)S(=O)(=O)c2ccc([N+](=O)[O-])cc2)cc1 (stereo not drawn)
Screen / compound no.	31	32	33	34	35	36	37	38	39	40
gsp antagonist	9%	8%	/	8%	-8%	1%	1%	-2%	2%	5%
gsp agonist	-16%	-55%[inhibitor]	/	6%[15.4 µM]	16%	?	1%	-20%	-17%	-32%
Six1-Eya2 inh	-11	-1	8	8	7	5	-8	0	-2	3
D2 PAM	0	-8	-3	-1	-9	-11	-3	-2	-11	-4
D2 agonist	-0.5	1.0	-2.2	-0.3	-5.4	-5.9	-1.6	-1.7	-1.8	-4.2
CtBP-E1A blk	-2	8	0	-1	0	-5	0	14	4	/

(41) Cc1nn(C)cc1/C=N/NC(=O)C(C)(C)Oc1ccc(Cl)cc1
(42) COc1ccc(N2C(=O)C3CCCN3C2c2ccccc2Cl)cc1 (stereo not drawn)
(43) Cc1c(Cl)cccc1NC(=O)CSc1nnc(C)n1-c1ccccc1
(44) O=C(O/N=C\c1ccc(N2CCOCC2)c([N+](=O)[O-])c1)c1ccc(F)cc1
(45) Cc1cc(C)n2c(SCC(=O)NC3CCCC(C)C3C)nnc2n1 (stereo not drawn)
(46) O=C(C1COc2ccccc2O1)N1CCN(c2ccc(F)cc2)CC1 (stereo not drawn)
(47) CCCCCC(=O)Nc1cc(S(=O)(=O)O)cc2cc(S(=O)(=O)O)cc(O)c12
(48) Nc1nc(-c2ccc(-n3nncc3-c3ccco3)cc2)cs1
(49) Cn1c(=O)c2c(nc(CN3CCN(c4ccccc4)CC3)n2CCCc2ccccc2)n(C)c1=O
(50) CCOc1ccccc1NC(=O)C(=O)NCCC1=CCCCC1
Screen / compound no.	41	42	43	44	45	46	47	48	49	50
gsp antagonist	9%	-4%	-8%	-1%	1%	4%	11%	-4%	1%	-3%
gsp agonist	-3%	-1%	-3%	-25%	-20%	?	4%	5%	-1%	35%[15.4 µM]
Six1-Eya2 inh	-1	2	2	0	4	-1	?	-10	2	14
D2 PAM	-6	0	0	1	5	-9	25	5	-18	2
D2 agonist	-1.2	2.1	0.3	-3.8	-2.1	-0.2	9.0	0.1	0.3	-1.3
CtBP-E1A blk	1	3	5	-3	-1	7	-9	-12	-3	9

(51) O=C(Nc1cc(Cl)ccc1-n1cncn1)c1ccc(Br)o1
(52) CCOc1ccc(C2c3c(oc4ccccc4c3=O)C(=O)N2CCCN2CCOCC2)cc1 (stereo not drawn)
(53) Cc1cc(C)n2cc(CSc3nc4ccccc4s3)nc2n1
(54) COc1ccccc1CNC(=O)COC(=O)c1nccnc1N
(55) CC(C)(C)c1nc2ccc(NS(=O)(=O)c3ccc(F)c(F)c3F)cc2[nH]1
(56) O=S(=O)(c1ccc2c(c1)OCO2)N1CCN(c2nnnn2-c2ccccc2)CC1
(57) CC(Oc1cccc(Br)c1)C(=O)Nc1cccc(S(=O)(=O)N2CCOCC2)c1 (stereo not drawn)
(58) COc1ccc(N(CC(=O)NC2CCCC2)C(=O)Cn2nnc(-c3ccc(C)cc3)n2)cc1
(59) CN1/C(=C\C(=O)c2cccs2)C(C)(C)c2ccccc21
(60) CCOC(=O)N1CCc2c(sc3nc(SC(C)C)n(N)c(=O)c23)C1
Screen / compound no.	51	52	53	54	55	56	57	58	59	60
gsp antagonist	4%	-15%	6%	15%	3%	-15%	-12%	-20%	5%	-16%
gsp agonist	2%[15.4 µM]	23%	-26%	19%	?	1%	9%	2%	-47%[inhibitor]	-8%[15.4 µM]
Six1-Eya2 inh	2	-2	1	1	14	3	0	-16	82	-11
D2 PAM	-3	-5	21	0	-1	-7	12	-6	9	-7
D2 agonist	2.6	0.3	0.2	4.6	-1.6	-4.0	-1.9	-2.3	-0.8	-3.0
CtBP-E1A blk	-4	1	1	-2	6	5	-4	-11	79	4
